# Assay outcomes deposited in PubChem BioAssay by several laboratories.
# HSV replic up: increases HSV replication in cells; AID 1956; maximum fold increase; 220,000 tested, 0.005% active; HSV replication augmentation in cells, fold increase;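 active means peak rise of 1.5-fold or more in the series; tested in PC3 cells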;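 further: first round at 10 µM; read as green reporter fluorescence; hits show the peak of a series up to 25 µM; 1 = signal of infected wells without compound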
# GALR2 agonist: activates the human galanin receptor 2. activation, %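 (tested at 5 µM)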. GALR2-expressing cells, agonist activation read-out. 140,000 tested, 0.48% active. O43603;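 active means above mean plus 3 SD of all compounds, about 5% in these data, not always enough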;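 further: 0% = vehicle buffer wells and 100% = reference agonist at full effect; tested in CHO reporter cells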
# Target sequence (O43603 whole entry, looked up): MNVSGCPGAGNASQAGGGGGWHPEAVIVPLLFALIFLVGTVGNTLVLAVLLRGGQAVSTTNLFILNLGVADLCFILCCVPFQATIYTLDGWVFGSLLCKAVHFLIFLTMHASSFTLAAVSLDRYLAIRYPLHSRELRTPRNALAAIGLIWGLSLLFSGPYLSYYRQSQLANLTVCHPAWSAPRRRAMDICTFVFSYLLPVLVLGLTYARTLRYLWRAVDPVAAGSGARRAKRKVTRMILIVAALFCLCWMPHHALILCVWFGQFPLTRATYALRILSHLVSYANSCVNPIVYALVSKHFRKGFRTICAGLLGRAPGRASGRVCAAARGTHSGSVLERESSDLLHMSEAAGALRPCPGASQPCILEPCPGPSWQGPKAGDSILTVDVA
# RGS16-Gao HTS: regulators of human RGS16-Galphao interaction. O15492+P09471. 220,000 tested, 0.38% active. bead-based flow cytometry RGS16-Galphao binding, fluorescence; actives lie on both sides. AID 1441. binding response (% of control), % at 10 µM;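 active means below 25% or above 175%, edge rows of some plates excepted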;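 further: Galphao activated by GDP with aluminum fluoride before binding; 100% = wells without compound and 0% = beads without RGS; some results beyond the cut were filed as inactive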
# Target sequence (O15492 whole entry, looked up): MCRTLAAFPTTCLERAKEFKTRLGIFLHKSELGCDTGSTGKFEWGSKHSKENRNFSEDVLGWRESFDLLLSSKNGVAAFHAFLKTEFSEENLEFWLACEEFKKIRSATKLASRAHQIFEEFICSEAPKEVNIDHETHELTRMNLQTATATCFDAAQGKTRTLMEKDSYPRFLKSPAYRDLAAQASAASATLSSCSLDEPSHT
# Target sequence (P09471 whole entry, looked up): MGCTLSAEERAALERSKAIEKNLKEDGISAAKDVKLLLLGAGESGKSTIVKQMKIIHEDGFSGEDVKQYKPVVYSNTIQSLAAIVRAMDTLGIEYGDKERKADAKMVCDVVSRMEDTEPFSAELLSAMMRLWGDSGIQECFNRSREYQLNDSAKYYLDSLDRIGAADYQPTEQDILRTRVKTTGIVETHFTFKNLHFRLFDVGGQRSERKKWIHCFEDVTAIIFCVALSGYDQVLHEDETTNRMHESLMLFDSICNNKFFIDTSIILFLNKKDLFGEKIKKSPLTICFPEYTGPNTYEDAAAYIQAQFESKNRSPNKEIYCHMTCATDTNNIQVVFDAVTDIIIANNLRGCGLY
# PKD1 inh: inhibitors of human PKD1 kinase; PKD1 kinase fluorescence polarization assay; inhibition, %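 (about 10 µM by stock and volumes)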; 200,000 tested, 0.056% active;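 active means inhibition of 50% or more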;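 further: controls were vehicle for no effect and a reference inhibitor for full effect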
# Insulin prom inh: TRM-6 insulin promoter activity inhibition; TRM-6 cells (human fetal islet line), insulin promoter-eGFP reporter, imaging; reporter expression induced with tamoxifen; inhibition, % at 2 µM; 130,000 tested, 0.9% active;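 active means inhibition above the mean plus 3 SD, with well images judged a real hit on visual review, cut at about 60% in these data, passing the limit was not always enough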
# Insulin prom inh cell count: also measured in Insulin prom inh; calls as there; normalized cell count, %; measured here: cell count, toxicity; reference of the scale not given here;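 cells exposed to compound for 48 h; stained nuclei by imaging scaled within each plate; lower means fewer cells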
# HSV replic up primary fold: second read-out of HSV replic up, no call of its own (marks repeat the call); fold increase; compound at 10 µM; measured here: primary screen fold increase 10 uM; tested in PC3 cells;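 GFP signal in the first replicate; 1 = infected wells without compound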
# Starred values were filed as active, the others as inactive; i = inactive; · = no result given. No enrichment for hits. About 1.1% of those tested had a hit in this group.
# Start of the data: the first two entries as a preview:
no.	SMILES	HSV replic up	HSV replic up primary fold	GALR2 agonist	RGS16-Gao HTS
1	CCC(=O)Nc1cccc(NC(=O)CSc2nnc(-c3ccc(NS(C)(=O)=O)cc3)n2CC)c1	i	0.79	-0.8	101.4
2	Fc1cccc(CSc2ccc3nnc(-c4ccccn4)n3n2)c1	i	0.99	·	98.2

no.	PKD1 inh	Insulin prom inh	Insulin prom inh cell count
1	3.6	-43.8	90.5
2	-3.3	57.9	78.1

# This part in full, repeating the preview:
no.	SMILES	HSV replic up	HSV replic up primary fold	GALR2 agonist	RGS16-Gao HTS
1	CCC(=O)Nc1cccc(NC(=O)CSc2nnc(-c3ccc(NS(C)(=O)=O)cc3)n2CC)c1	i	0.79	-0.8	101.4
2	Fc1cccc(CSc2ccc3nnc(-c4ccccn4)n3n2)c1	i	0.99	·	98.2
3	CC(=O)N1CCN(S(=O)(=O)c2ccc(C)c([N+](=O)[O-])c2)C1C(C)C (centres undefined)	i	0.87	·	98.9
4	C/C(=N\Nc1ccc(Cl)cc1)c1c(O)cc(C)oc1=O	i	0.94	·	109.5
5	CC(C)=CCN1CCN(Cc2cccc3nccnc23)CC1CCO (centres undefined)	i	1.05	·	94.3
6	S=C(NCC1CCCCC1)Nc1ccc(Oc2ccccc2)cc1	i	1.07	-0.9	102.7
7	O=[N+]([O-])C1=CC=C2C(=NC3(CCCCC3)N2O)C1=NCCc1ccccc1	i	0.83	·	99.9
8	CC1CC(C)(C)NC(=S)N1CCC(=O)Nc1ccc2c(c1)OCCO2 (centres undefined)	i	0.94	·	95.0
9	COC(=O)c1ccc(CO/N=C(\NC(C)=O)c2nonc2NC(C)=O)cc1	i	1.09	-1.7	102.5
10	O=C1NC(=NCc2ccccc2)S/C1=C/c1ccc(O)cc1	i	0.9	-1.6	104.3
11	C#CCN(Cc1ccco1)C(=O)c1cc(COc2ccc(F)cc2Cl)on1	i	0.94	·	107.1
12	O=C(N/N=C/c1ccc2nccnc2c1)c1ccncc1	i	1.07	·	98.1
13	CCC(C)NS(=O)(=O)c1ccc(S(=O)(=O)N2CC=C(c3ccc(F)cc3)CC2)cc1 (centres undefined)	i	0.84	-1.0	120.5
14	COc1ccc(/C=N/NC(=O)CN2CCCCCCC2)c(C)c1C	i	1.02	·	98.7
15	COc1cccc(N2CCN(c3c4c(nc5ncnn35)CCC4)CC2)c1	·	·	0.8	108.6

no.	PKD1 inh	Insulin prom inh	Insulin prom inh cell count
1	3.6	-43.8	90.5
2	-3.3	57.9	78.1
3	1.2	-16.7	135.6
4	-6.4	-33.3	128.6
5	5.5	·	·
6	-16.5	13.5	105.0
7	4.0	53.3	89.2
8	-1.9	·	·
9	-5.7	26.7	100.9
10	34.0	-158.6	102.7
11	2.7	-28.6	95.2
12	·	·	·
13	-11.3	·	·
14	·	·	·
15	-5.1	10.0	102.9

# A second format for 4 compounds above.
4) C/C(=N\Nc1ccc(Cl)cc1)c1c(O)cc(C)oc1=O
- HSV replic up = i
- HSV replic up primary fold = 0.94
- GALR2 agonist = ·
- RGS16-Gao HTS = 109.5
- PKD1 inh = -6.4
- Insulin prom inh = -33.3
- Insulin prom inh cell count = 128.6
5) CC(C)=CCN1CCN(Cc2cccc3nccnc23)CC1CCO (centres undefined)
- HSV replic up = i
- HSV replic up primary fold = 1.05
- GALR2 agonist = ·
- RGS16-Gao HTS = 94.3
- PKD1 inh = 5.5
- Insulin prom inh = ·
- Insulin prom inh cell count = ·
6) S=C(NCC1CCCCC1)Nc1ccc(Oc2ccccc2)cc1
- HSV replic up = i
- HSV replic up primary fold = 1.07
- GALR2 agonist = -0.9
- RGS16-Gao HTS = 102.7
- PKD1 inh = -16.5
- Insulin prom inh = 13.5
- Insulin prom inh cell count = 105.0
7) O=[N+]([O-])C1=CC=C2C(=NC3(CCCCC3)N2O)C1=NCCc1ccccc1
- HSV replic up = i
- HSV replic up primary fold = 0.83
- GALR2 agonist = ·
- RGS16-Gao HTS = 99.9
- PKD1 inh = 4.0
- Insulin prom inh = 53.3
- Insulin prom inh cell count = 89.2

# Next section:
no.	SMILES	HSV replic up	HSV replic up primary fold	GALR2 agonist	RGS16-Gao HTS
16	COC(=O)c1cc(S(=O)(=O)Nc2cccc(S(N)(=O)=O)c2)oc1C	i	0.91	·	106.1
17	COC(=O)C(C(=O)OC)N1C(=O)CCC1=O	i	1.06	-5.0	96.8
18	O=C(O)c1ccc(N2CCS(=O)(=O)CC2)cc1	i	0.94	·	95.8
19	Cc1ccc2nsnc2c1NC(=O)CCl	i	0.92	·	102.6
20	Cn1cccc1/C=N/N1CCN(Cc2ccc(Cl)cc2)CC1	i	0.98	·	96.0
21	COc1ccc(Oc2coc3c(CN(C)C)c(O)ccc3c2=O)cc1	i	1.09	0.4	102.2
22	COc1c(C)cccc1C(=O)Nc1cc(Cl)ccc1N1CCOCC1	i	0.95	1.7	104.3
23	CC(=O)NC(=S)Nc1cccc2ccc(C)nc12	i	0.84	·	99.0
24	Cn1nnc(NC(=O)COc2ccc(C3CCCCC3)cc2)n1	·	·	-2.0	104.2
25	Cc1csc(NC(=O)Cc2c[nH]c3ccccc23)n1	i	0.99	-4.7	98.2
26	O=C(Cn1c(=O)n(Cc2ccccc2)c(=O)c2ccccc21)NCc1ccco1	i	0.91	-3.4	176.1
27	CCNC(=O)NC(=O)C(C)OC(=O)c1cc(S(=O)(=O)N2CCCCCC2)ccc1OC (centres undefined)	i	0.98	0.3	98.8
28	COc1ccc(CNC(=O)c2ccc(C(C)(C)C)cc2)cc1	i	0.98	·	101.3
29	CC1CCc2c(sc3nc(C4CC4)nc(N4CCN(C(=O)c5ccco5)CC4)c23)C1 (centres undefined)	i	0.47	2.8	·
30	CCn1nc(C)c(CNC(=O)Nc2ccccc2C(=O)OC)c1C	i	1.05	·	98.5

no.	PKD1 inh	Insulin prom inh	Insulin prom inh cell count
16	·	·	·
17	-2.8	-37.0	232.2
18	-4.1	·	·
19	-2.3	·	·
20	·	·	·
21	-1.4	-55.3	84.2
22	3.6	0.0	116.3
23	·	·	·
24	-0.5	-127.6	152.1
25	-8.0	-20.6	231.2
26	-0.1	11.4	96.3
27	-1.6	-35.5	176.6
28	-10.5	·	·
29	0.8	-338.9	61.8
30	-3.1	·	·

# The list continues:
no.	SMILES	HSV replic up	HSV replic up primary fold	GALR2 agonist	RGS16-Gao HTS
31	COC(=O)c1cccc(C(=O)N2CCC(CO)(Cc3ccccc3Cl)CC2)c1	i	0.91	·	109.3
32	COc1ccc(/C=C2\N=C(c3ccccc3Cl)NC2=O)cc1	i	0.9	·	95.5
33	Nc1nnnn1/N=C/c1cccc(OCc2ccccc2Cl)c1	i	0.88	0.1	93.7
34	COCCn1nnnc1CN(CCc1ccc(OC)c(OC)c1)Cc1cc2ccc(C)cc2[nH]c1=O	i	0.86	-0.3	102.7
35	CS(=O)(=O)N(CC(N)=O)c1ccc(F)c(Cl)c1	i	0.97	-2.6	109.3
36	COc1ccc(CCN(C)C(=O)C2CCN(Cc3ccc(C)cc3)CC2)cc1OC	i	0.89	·	98.0
37	CCOC(=O)N1CCN(C(=O)Cn2ncn3nc(-c4cccs4)cc3c2=O)CC1	i	1	3.5	97.7
38	O=C(Nc1nc(-c2ccccc2)cs1)c1ccco1	i	0.94	·	98.1
39	Oc1c(C=Nc2ccccc2)sc2ccccc12	i	0.96	·	101.8
40	Cc1ccccc1NCCNc1ccccc1C	i	0.78	-1.9	102.4
41	O=C(c1ccc(Cl)cc1)N1CCN=C1c1ccccc1	i	1.05	0.2	107.1
42	CCN(CC)CCNC(=O)c1c(C)oc2cc(Br)c(OC)cc12	i	0.79	-1.8	100.4
43	COc1ccc2c(=O)c3c(=O)n(CCc4ccccc4)c(C(C)C)nc3oc2c1	i	0.95	·	100.4
44	Cc1cc(=O)oc(C)c1C(=O)NCCCN1CCN(c2ccc(F)cc2)CC1	i	0.94	-3.6	93.0
45	CCOc1ccc(NC(=O)c2cc3cc4ccc(C)cc4nc3o2)cc1	i	0.9	·	101.0

no.	PKD1 inh	Insulin prom inh	Insulin prom inh cell count
31	3.6	·	·
32	·	·	·
33	3.2	33.3	113.9
34	0.5	·	·
35	-12.8	-186.2	57.0
36	-7.9	·	·
37	-7.7	3.5	58.3
38	·	·	·
39	1.3	50.0	105.1
40	1.5	-61.3	96.1
41	-8.9	0.0	86.4
42	-0.5	-42.9	67.5
43	·	·	·
44	-11.3	-9.1	109.6
45	-0.6	-28.6	138.9

# Values in list order from the list.
# Entries 31–38 in RGS16-Gao HTS, in turn: 109.3, 95.5, 93.7, 102.7, 109.3, 98.0, 97.7, 98.1

# Going on with the list:
no.	SMILES	HSV replic up	HSV replic up primary fold	GALR2 agonist	RGS16-Gao HTS
46	Cn1c2ccccc2c(=O)c2c(=O)n(Cc3ccco3)c(-c3ccc(Cl)cc3Cl)nc21	i	0.83	·	98.6
47	CC(=O)N1CCN(CC(=O)Nc2c(Cl)cccc2Cl)CC1	i	0.99	-1.6	94.0
48	OC(COc1cccc2ccccc12)CN1CCN(c2ccccc2)CC1 (centres undefined)	i	1.04	·	100.4
49	COc1ccccc1CNC(=O)C1CC2Cn3c(nc4ccccc43)C2N1C (centres undefined)	i	1.14	·	109.3
50	CC1(C)CC(=O)c2cc(O)ccc2O1	i	1.02	-1.7	112.4
51	COc1ccc(C(=O)Nc2ccc(OC)c([N+](=O)[O-])c2)cc1Br	i	0.68	·	93.7
52	C(=C\c1ccccc1)/CN1CCN(Cc2ccc3c(c2)OCCO3)CC1	i	1.08	-0.1	85.5
53	CCCCC(=O)Nc1ccc2c(c1)OCCO2	i	0.98	-3.6	112.4
54	COC(=O)c1cccn(CC(=O)c2ccc(Cl)cc2Cl)c1=O	i	0.93	·	96.0
55	Cc1cccc(N/C=C/c2onc(C)c2[N+](=O)[O-])c1	i	1.09	-1.9	101.8
56	CCOC(=O)C(=CNc1cc(OC)ccc1-n1cccc1)C(=O)OCC	i	0.84	·	90.0
57	COc1ccc(/C=C/C(=O)NC(C)CCc2ccccc2)cc1 (centres undefined)	i	1.01	-1.5	96.6
58	O=S(=O)(/C=C/c1ccccc1)Nc1ccc(F)cc1	i	1.03	·	103.8
59	CC(=O)c1ccc(Nc2c(C)n(C)n(-c3ccccc3)c2=O)cc1	i	0.88	·	108.5
60	O=C(c1ccc([N+](=O)[O-])c(CS(=O)(=O)c2ccc(Cl)cc2)c1)N1CCCC1	i	0.99	·	37.3

no.	PKD1 inh	Insulin prom inh	Insulin prom inh cell count
46	·	·	·
47	-1.2	15.6	97.5
48	·	·	·
49	·	·	·
50	-9.4	42.9	100.7
51	3.6	18.2	99.2
52	-7.2	-17.9	94.4
53	-12.8	48.5	157.5
54	2.5	·	·
55	-1.5	35.7	98.1
56	·	·	·
57	-5.1	11.1	77.7
58	-1.6	-55.6	68.3
59	-1.1	7.1	97.9
60	3.0	-36.4	70.8

# The listing continues.
no.	SMILES	HSV replic up	HSV replic up primary fold	GALR2 agonist	RGS16-Gao HTS
61	Cc1cc(C)nc(N/N=C/c2cc(Br)ccc2O)n1	i	1.16	·	93.5
62	CN(C)CCCNC(=S)NCCNc1nc2cc3c(cc2cc1C#N)OCO3	i	0.91	·	114.7
63	Cc1oc(C)c(C(N)=O)c1C(N)=O	i	1	0.7	85.0
64	Cc1ccn2cc(CCNC(=O)c3ccc(Br)o3)nc2c1	i	0.87	-2.7	106.0
65	O=C(CN1C(=O)COc2ccc(Cl)cc21)Nc1ccc2c(c1)OCCO2	i	0.91	-2.5	109.3
66	CCc1nnc(NCn2nc(C)cc2C)s1	i	1.12	0.0	99.8
67	Cc1cc(NC(=O)Cn2nc(C(F)(F)F)c3c2CCC3)n(-c2ccccc2)n1	i	0.8	0.0	47.9
68	COc1ccccc1CN(CC(=O)NCc1ccc2c(c1)OCO2)C(=O)c1ccc2c(c1)OCCO2	i	0.99	-2.5	96.9
69	CCCCC1=NN(C(=O)c2cccnc2)C(O)(C(F)(F)F)C1 (centres undefined)	i	1.11	·	100.4
70	COc1ccc(C2=NOC(COc3ccc4c(C)cc(=O)oc4c3)C2)c(OC)c1 (centres undefined)	i	0.75	·	100.6
71	COc1cccc(C(=O)O/N=C2\CCS(=O)(=O)c3sccc32)c1	i	1.03	·	102.0
72	Cc1nn(Cc2ccccc2Cl)c(C)c1C(=O)NCc1ccco1	i	0.94	-0.4	106.9
73	CCC(c1nnc(SCCNCCO)n1CCN1CCOCC1)N(C)C (centres undefined)	i	1.08	-3.1	100.6
74	COc1cc(CC(=O)N/N=C/c2ccccc2)c([N+](=O)[O-])cc1OC	i	0.91	0.1	102.5

no.	PKD1 inh	Insulin prom inh	Insulin prom inh cell count
61	·	·	·
62	-10.1	8.3	122.4
63	10.4	·	·
64	-11.8	·	·
65	-5.2	-5.0	161.5
66	-6.3	-25.0	113.2
67	9.5	·	·
68	-1.0	35.1	136.1
69	·	·	·
70	·	·	·
71	-3.0	·	·
72	-3.4	-50.0	160.3
73	10.0	·	·
74	-3.0	10.0	88.6
